Screening data as filed in PubChem.
GALR2 agonist: GALR2 (human) receptor agonism. AID 803. GALR2-expressing cells, agonist activation read-out. activation, %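 (tested at 5 µM)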. hit rate 0.48% among 140,000. O43603;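 active = above mean plus 3 SD of all compounds, about 5% in these data, not always enough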;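 note: 0% = vehicle buffer wells and 100% = reference agonist at full effect; tested in CHO reporter cells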
Target sequence (O43603 whole entry, looked up): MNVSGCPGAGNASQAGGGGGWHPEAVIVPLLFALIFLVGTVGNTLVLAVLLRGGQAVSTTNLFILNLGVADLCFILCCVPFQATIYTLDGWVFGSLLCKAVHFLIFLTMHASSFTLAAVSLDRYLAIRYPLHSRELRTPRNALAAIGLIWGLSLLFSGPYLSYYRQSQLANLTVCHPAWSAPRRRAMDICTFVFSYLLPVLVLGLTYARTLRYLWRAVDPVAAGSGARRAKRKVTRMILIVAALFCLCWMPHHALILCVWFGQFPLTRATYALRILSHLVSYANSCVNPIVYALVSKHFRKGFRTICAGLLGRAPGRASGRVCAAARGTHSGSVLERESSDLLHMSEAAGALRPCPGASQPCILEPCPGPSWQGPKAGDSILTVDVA
INS promoter inh: TRM-6 insulin promoter activity inhibition; AID 1273; inhibition, % at 2 µM; TRM-6 cells (human fetal islet line), insulin promoter-eGFP reporter, imaging; reporter expression induced with tamoxifen; hit rate 0.9% among 130,000;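 active = inhibition above the mean plus 3 SD, with well images judged a real hit on visual review, cut at about 60% in these data, passing the limit was not always enough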
RGS16-Gao: RGS16-Galphao interaction regulator (human) | hit rate 0.38% among 220,000 | bead-based flow cytometry RGS16-Galphao binding, fluorescence; actives lie on both sides | binding response (% of control), % at 10 µM | O15492+P09471 | AID 1441;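 active = below 25% or above 175%, edge rows of some plates excepted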;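 note: Galphao activated by GDP with aluminum fluoride before binding; 100% = wells without compound and 0% = beads without RGS; some results beyond the cut were filed as inactive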
Target sequence (O15492 whole entry, looked up): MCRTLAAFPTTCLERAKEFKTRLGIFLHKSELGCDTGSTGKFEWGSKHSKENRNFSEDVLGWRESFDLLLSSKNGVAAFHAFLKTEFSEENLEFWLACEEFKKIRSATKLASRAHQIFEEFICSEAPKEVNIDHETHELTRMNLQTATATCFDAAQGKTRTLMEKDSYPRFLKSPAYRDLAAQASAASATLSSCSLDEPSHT
Target sequence (P09471 whole entry, looked up): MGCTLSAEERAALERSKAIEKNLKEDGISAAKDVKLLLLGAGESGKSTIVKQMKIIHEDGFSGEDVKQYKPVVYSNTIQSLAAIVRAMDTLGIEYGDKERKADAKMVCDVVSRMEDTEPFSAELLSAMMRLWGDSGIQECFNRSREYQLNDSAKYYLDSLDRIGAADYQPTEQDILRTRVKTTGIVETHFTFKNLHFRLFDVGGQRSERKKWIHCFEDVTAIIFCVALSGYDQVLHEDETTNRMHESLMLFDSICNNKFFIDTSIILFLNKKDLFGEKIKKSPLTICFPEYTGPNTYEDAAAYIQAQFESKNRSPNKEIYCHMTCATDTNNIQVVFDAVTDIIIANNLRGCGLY
PKD1 kinase inh: blocks activity of human protein kinase D1 | Q15139 | PKD1 kinase fluorescence polarization assay | inhibition, %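 (about 10 µM by stock and volumes)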 | hit rate 0.056% among 200,000;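 active = inhibition of 50% or more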;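 note: controls were vehicle for no effect and a reference inhibitor for full effect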
HSV augment: HSV replication enhancement | HSV replication augmentation in cells, fold increase | maximum fold increase | hit rate 0.005% among 220,000 | AID 1956;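 active = peak rise of 1.5-fold or more in the series; tested in PC3 cells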;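 note: first round at 10 µM; read as green reporter fluorescence; hits show the peak of a series up to 25 µM; 1 = signal of infected wells without compound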
INS promoter inh cell count: recorded beside INS promoter inh, whose call it bears; normalized cell count, %; measured here: cell count, toxicity; reference of the scale not given here;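 cells exposed to compound for 48 h; stained nuclei by imaging scaled within each plate; lower means fewer cells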
HSV augment primary fold: second read-out of HSV augment, no call of its own (marks repeat the call); fold increase; compound at 10 µM; measured here: primary screen fold increase 10 uM; tested in PC3 cells;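 GFP signal in the first replicate; 1 = infected wells without compound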
An asterisk follows results filed as active; i = inactive; . = no result given.

SMILES	GALR2 agonist	INS promoter inh	INS promoter inh cell count	RGS16-Gao	PKD1 kinase inh	HSV augment	HSV augment primary fold
Cc1csc(NC(=O)CSc2nncn2C)n1	-0.4	23.7	77.3	95.1	-16.2	i	0.91
CNC(=O)c1c(NC(=O)c2ccc(S(=O)(=O)N3CCCc4ccccc43)cc2)sc2c1CCN(C)C2	.	.	.	96.5	.	i	1.24
S=C(c1ccc[nH]1)N1CCOCC1	-0.7	22.2	122.5	39.3	8.6	i	0.89
COc1ccc(OCC(=O)Nc2ccc(S(=O)(=O)Nc3nc(C)cc(C)n3)cc2)cc1	.	.	.	101.6	-4.1	i	0.95
O=C(OCc1csc(Nc2ccccc2)n1)c1ccc(Cl)cc1	0.2	.	.	100.0	-5.0	i	1.03
CC(Sc1nc2ccccc2s1)C(=O)c1c(N)n(C)c(=O)n(C)c1=O (centres undefined)	.	.	.	107.5	-4.6	i	0.77
CCNc1nc(Cl)nc(NNC(=O)C(C)Oc2ccccc2)n1 (centres undefined)	0.0	.	.	95.0	-4.7	i	0.92
O=C(CN1C(=O)c2cccc3cccc1c23)Nc1ccc(S(=O)(=O)Nc2nccs2)cc1	-1.2	.	.	101.7	7.4	i	0.89
O=C(Nc1ccccc1)c1ccc(COc2ccccc2)cc1	.	.	.	91.0	-4.0	i	0.91
COc1ccc(C(C)=O)cc1CSCCC#N	-1.3	-453.9	44.6	98.0	-2.6	i	1.01
COc1ccc(CCNC2=C(Cl)C(=O)N(CCc3ccccc3)C2=O)cc1OC	-0.8	31.0	60.0	104.5	-6.2	i	1.02
Cc1ccc(C(=O)Nc2cc(Cl)ccc2N2CCCCC2)s1	-3.8	-17.1	89.7	99.6	-1.3	i	1.21
CCc1nc(SCC#N)c(C#N)cc1C	.	.	.	98.3	-0.3	i	0.96
COc1ccc2cc(CN(CCCN3CCOCC3)Cc3nnnn3C3CCCCC3)c(=O)[nH]c2c1	-0.5	.	.	103.0	28.7	i	0.75
CCCCCOc1ccc(CSc2n[nH]c(C)n2)cc1	.	7.7	135.4	97.3	8.9	i	0.93
O=C(NC(=S)N(Cc1ccccc1)c1ccccn1)C1CC1	-1.5	.	.	93.4	-0.6	i	0.95
COCc1c(C(=O)OCc2c(C)noc2C)oc2ccccc12	.	.	.	94.0	-1.9	i	0.96
CCc1nnc(NC(=O)CSc2nc(-c3ccc(F)cc3)cc(-c3ccccc3)c2C#N)s1	-1.1	.	.	111.9	-2.8	i	1.04
Cc1cc(C)c(CSc2ncc(-c3ccc([N+](=O)[O-])cc3)[nH]2)c(C)c1	-0.9	0.0	60.5	101.8	0.1	i	0.94
Cc1ccccc1Nc1nc(=O)c2cc([N+](=O)[O-])ccc2s1	-0.7	.	.	101.9	-12.2	i	0.95

Some of the entries so far, with values under each structure:
Screens in order: GALR2 agonist | INS promoter inh | INS promoter inh cell count | RGS16-Gao | PKD1 kinase inh | HSV augment | HSV augment primary fold
COCc1c(C(=O)OCc2c(C)noc2C)oc2ccccc12
→ . | . | . | 94.0 | -1.9 | i | 0.96
CNC(=O)c1c(NC(=O)c2ccc(S(=O)(=O)N3CCCc4ccccc43)cc2)sc2c1CCN(C)C2
→ . | . | . | 96.5 | . | i | 1.24

Following part
SMILES	GALR2 agonist	INS promoter inh	INS promoter inh cell count	RGS16-Gao	PKD1 kinase inh	HSV augment	HSV augment primary fold
O=S(=O)(NCC(c1cccnc1)N1CCN(c2ccccc2F)CC1)c1cccs1 (centres undefined)	-1.4	.	.	100.5	3.8	i	0.9
CCOC(=O)Nc1cc(Br)c2c(c1)OCCO2	-1.0	19.4	117.3	97.6	6.1	i	0.83
COc1ccc(-c2cc(C(=O)O)nc3ccc4ccccc4c23)cc1OC	.	.	.	106.7	0.2	i	0.98
Cc1ccccc1OCC1CN(CN2CCOCC2)C(=O)O1 (centres undefined)	-0.4	.	.	91.6	0.7	i	0.973
COC(=O)c1cn(C)c2ccc(S(=O)(=O)N3CCCCC3)cc2c1=O	-4.3	.	.	103.7	-1.8	i	0.89
O=C(COC(=O)c1cc(S(=O)(=O)N2CCOCC2)cs1)c1ccccc1	-0.2	21.0	44.3	103.1	-3.5	i	0.74
O=C(CSc1nnc(-c2ccc(NS(=O)(=O)c3ccccc3)cc2)o1)NCC1CCCO1 (centres undefined)	-2.2	.	.	98.6	-0.2	i	0.93
O=C(O)COc1ccccc1/C=N/NC(=O)CSc1nc2ccccc2c(=O)n1-c1ccccc1	.	.	.	97.7	.	i	1.04
CCn1cc(Cl)c(C(=O)Nc2cc(C(=O)OC)cc(C(=O)OC)c2)n1	.	-22.2	100.6	104.3	4.3	i	1.13
CCCOC(=O)CSC1=C(C#N)C(c2ccccc2Cl)CC(=O)N1 (centres undefined)	-2.9	.	.	101.5	6.1	.	.
COCC(C)n1c(C)cc(C(=O)CSc2nnc(N)s2)c1C (centres undefined)	-2.0	-37.5	186.8	101.0	1.9	i	1.09
CCCCc1nc(S(=O)(=O)c2ccc(Cl)cc2)c(N2CCOCC2)o1	-2.5	-104.7	75.4	105.7	-0.8	i	0.993
O=C(Nc1nc2ccccc2s1)c1cc(-c2ccccc2)nn1-c1ccccc1	0.1	23.1	153.3	118.8	-5.8	i	0.92
Cc1ccsc1/C=N/NC(=O)c1cc(-c2ccncc2)nc2ccccc12	0.9	-361.5	9.7	107.1	9.2	i	0.6
CC(C)N1C2OC(C3OC4C(O3)N(C(C)C)S(=O)(=O)N4C(C)C)OC2N(C(C)C)S1(=O)=O (centres undefined)	-2.2	46.7	147.4	110.6	-5.9	i	1.02
C=CCn1cccc(/C=C/C(=O)c2ccc(C(C)(C)C)cc2)c1=S	-1.1	60.0	105.1	99.5	-8.8	i	0.96
Cc1nn(Cc2ccccc2)c(C)c1NC(=O)CCC(=O)O	-0.8	31.2	71.3	104.8	4.5	i	1.05
CCn1c(CC(=O)Nc2ccc(C)c(Cl)c2)nnc1SCc1ccc(Cl)c(Cl)c1	-2.6	.	.	107.0	-1.3	i	1.04
COc1ccc(/C=N/Nc2nc3ccccc3s2)cc1O	.	.	.	96.8	9.6	i	1
C=CCSc1nc2sc3c(c2c(=O)[nH]1)CCC3	.	-27.3	105.6	102.3	-8.5	i	0.94

Profiles from above. Screens in order: GALR2 agonist | INS promoter inh | INS promoter inh cell count | RGS16-Gao | PKD1 kinase inh | HSV augment | HSV augment primary fold
Profile of `CCCOC(=O)CSC1=C(C#N)C(c2ccccc2Cl)CC(=O)N1` (centres undefined) : -2.9 | . | . | 101.5 | 6.1 | . | .
Profile of `Cc1ccsc1/C=N/NC(=O)c1cc(-c2ccncc2)nc2ccccc12` : 0.9 | -361.5 | 9.7 | 107.1 | 9.2 | i | 0.6
Profile of `Cc1nn(Cc2ccccc2)c(C)c1NC(=O)CCC(=O)O` : -0.8 | 31.2 | 71.3 | 104.8 | 4.5 | i | 1.05

Following part
SMILES	GALR2 agonist	INS promoter inh	INS promoter inh cell count	RGS16-Gao	PKD1 kinase inh	HSV augment	HSV augment primary fold
CN(C)C(=O)CCSc1nnc(-c2ccncc2)o1	.	35.7	110.8	103.3	7.2	i	0.98
CCCn1c(C)cc(C(=O)COC(=O)c2ccc(Cl)c(S(=O)(=O)N3CCCC3)c2)c1C	-0.5	22.6	129.6	95.5	3.8	i	1.06
Clc1ccc(-c2cn3cccnc3n2)cc1	1.5	-28.6	103.2	101.1	0.1	i	1.13
O=C(Cc1ncc(C(F)(F)F)cc1Cl)N1CCN(c2cccc(Cl)c2)CC1	-2.0	-59.4	53.5	89.3	0.3	i	0.73
O=C(CCC1CCCC1)N1CCC(N2CCN(c3ccccc3)CC2)CC1	-1.7	.	.	113.6	-7.8	i	1.17
CC12CC3(C)CC(C)(C1)CC(C(=O)NC(=S)N1CCCC1)(C2)C3	.	-25.0	97.0	95.8	-8.3	i	0.84
Cc1ccc(S(=O)(=O)N2CCN(C(=O)CCC(=O)NCCc3ccc(S(N)(=O)=O)cc3)CC2)c(C)c1	.	.	.	107.0	-3.7	i	0.9
CCOc1cnc(C(=O)NNC(=O)c2ccccc2Br)o1	.	46.1	78.7	103.0	-2.0	.	.
Cc1cccc2cc(C(c3nnnn3C(C)(C)C)N(Cc3ccco3)CC3CCCO3)c(=O)[nH]c12 (centres undefined)	0.2	-41.9	49.2	102.9	-1.6	i	0.88
Cc1ccccc1NC(=O)c1ccc(OCC(=O)Nc2ccccc2F)cc1	.	-30.8	133.5	99.5	-4.3	i	0.95
Cc1cc(=O)oc2cc(NC(=S)NCc3cccnc3)ccc12	.	.	.	100.3	-5.1	i	0.99
O=C(CSc1nccc(=O)[nH]1)Nc1ccccc1Sc1ccccc1	.	7.7	128.7	99.4	-2.5	i	1.16
Cc1c(C(=O)N2CCCC(C)C2)sc2ncnc(N3CCCCC3C)c12 (centres undefined)	.	23.5	71.7	101.8	-3.8	i	0.77
Cc1cccc(-n2ncc3c(NCc4cccnc4)ncnc32)c1	.	.	.	96.7	.	i	0.83
CCc1nnc(NC(=O)CN2C(=O)c3ccccc3S2(=O)=O)s1	-0.9	31.2	133.2	103.2	-3.4	i	0.88
O=C1CC(Sc2nnc(-c3ccccc3)o2)C(=O)N1c1ccccc1 (centres undefined)	-0.3	16.3	79.4	114.5	-5.1	i	0.99
CC1CCCN(CC(=O)Nc2cccc([N+](=O)[O-])c2)C1 (centres undefined)	-0.9	0.0	121.6	100.2	4.1	i	1.02
C(=C\c1ccccc1)/CSc1nnc(-c2cccnc2)o1	-0.5	20.0	104.3	100.7	-15.7	i	0.78
Cc1nn(C)c(C(=O)N/N=C/c2cccc3ccccc23)c1Cl	-0.7	35.7	149.2	30.9	-11.8	i	0.89
O=C(CSc1ccc2c(c1)OCCO2)Nc1cccnc1	.	-90.9	127.7	98.6	-7.2	i	1.08

Taken from above.
Value for `O=C(OCc1csc(Nc2ccccc2)n1)c1ccc(Cl)cc1` in PKD1 kinase inh: -5.0
Value for `Cc1ccc(C(=O)Nc2cc(Cl)ccc2N2CCCCC2)s1` in INS promoter inh cell count: 89.7
Value for `O=C(CCC1CCCC1)N1CCC(N2CCN(c3ccccc3)CC2)CC1` in GALR2 agonist: -1.7
Value for `O=S(=O)(NCC(c1cccnc1)N1CCN(c2ccccc2F)CC1)c1cccs1` (centres undefined) in PKD1 kinase inh: 3.8
Value for `CCCn1c(C)cc(C(=O)COC(=O)c2ccc(Cl)c(S(=O)(=O)N3CCCC3)c2)c1C` in INS promoter inh cell count: 129.6

Next section.
SMILES	GALR2 agonist	INS promoter inh	INS promoter inh cell count	RGS16-Gao	PKD1 kinase inh	HSV augment	HSV augment primary fold
CCOCCCN1CC(C(=O)NCCc2ccccc2)CC1=O (centres undefined)	-1.1	.	.	96.8	-10.2	i	0.82
CNC(=O)CSc1nc2nc(C)cc(C)n2n1	-2.3	34.8	96.3	100.8	-9.5	i	1.02
CCC(C)NC(=O)Nc1ccc(C)cc1C (centres undefined)	.	.	.	105.1	-2.4	i	0.96
O=C1NN(c2ccccc2)C(=O)C2C1C1C=CC2C12CC2 (centres undefined)	-0.7	.	.	134.0	-5.3	i	1.12
COc1ccc(NC(=O)CC(C)(C)C)c([N+](=O)[O-])c1	-0.5	-28.1	55.0	101.5	-7.3	i	1.02
CC(OC(=O)/C=C/c1cccs1)C(=O)Nc1ccc(S(N)(=O)=O)cc1 (centres undefined)	.	.	.	101.0	2.3	i	1.08
O=C(O)CSc1nnc(-c2ccncc2)n1C1CCCCC1	0.0	.	.	103.9	0.4	i	0.83
CCOC(=O)C1CCN(Cc2cn[nH]c2-c2ccccc2)CC1	-3.1	20.0	129.6	103.9	-6.3	i	0.78
C=CCn1cnc2c(nnn2-c2ccc(OC)c(OC)c2)c1=O	.	.	.	99.7	6.3	i	0.82
CCOC(=O)C1=C(C)C(c2ccc(OC)cc2)NC(=O)N1 (centres undefined)	.	-30.8	103.5	99.8	0.3	i	0.94
CC(C)C(=O)N1CCC2(CC1)Oc1ccc(Cl)cc1C(=O)C21CC(c2cccnc2)=NO1 (centres undefined)	.	.	.	89.5	.	i	0.76
COC(=O)c1ccc(CNC(=O)c2cc3ccccc3oc2=O)cc1	.	.	.	101.5	-3.0	i	0.93

In another format: results already given
> O=C1NN(c2ccccc2)C(=O)C2C1C1C=CC2C12CC2 (centres undefined)
  GALR2 agonist = -0.7; INS promoter inh = .; INS promoter inh cell count = .; RGS16-Gao = 134.0; PKD1 kinase inh = -5.3; HSV augment = i; HSV augment primary fold = 1.12

> C=CCn1cnc2c(nnn2-c2ccc(OC)c(OC)c2)c1=O
  GALR2 agonist = .; INS promoter inh = .; INS promoter inh cell count = .; RGS16-Gao = 99.7; PKD1 kinase inh = 6.3; HSV augment = i; HSV augment primary fold = 0.82
